Screens deposited in PubChem by National Center for Advancing Translational Sciences (NCATS).
Menin-MLL FL inh: qHTS Assay for Inhibitors Targeting the Menin-MLL Interaction in MLL Related Leukemias: Competition With Fluorescein Labeled MLL-derived Peptide | Fluorescence polarization, fluorescein-MLL peptide displacement from menin | 290,000 tested, under 10 active | FP activity change, % at 61.4 µM; inconclusive = falling polarisation curve, or a change in total fluorescence; inactive = total fluorescence flat and polarisation flat or rising; no compound was filed as active; the % refers to the polarisation; negative = inhibition;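 note: % of control where 0% means no effect; inhibitors lower the polarisation; unlabelled MLL peptide was the positive control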
gsp antagonist: qHTS for Antagonists of gsp, the Etiologic Mutation Responsible for Fibrous Dysplasia/McCune-Albright Syndrome: qHTS; gsp-mutant cells, cAMP HTRF, 30 min; control for the full effect not named in the record; Potency, µM (top dose mostly 76.9 µM), for inactives: at the top dose activity change, negative = inhibition, most hits filed as inhibitors; 0.4% of 340,000 active; AID 624288, 2012; active = falling curve of any shape with a large fitted effect; inconclusive = falling curve, mostly with a smaller effect; inactive = flat or rising curve; cell line not stated here;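 note: intracellular cAMP measured with PDE inhibitor Ro 20-1724 present during compound exposure; potency is the fitted concentration of half-maximal effect; % is set by controls: 0 for no effect and ±100 for the full control effect; nearly all actives have a fitted effect of over 65% in size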
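HTRF cAMP measurement after 30 min RT detection following 30 min, 37C compound treatment alongside […] (added as 300 uM solution) in G418-selected cells seeded at 2000/well and grown 16–24 h.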
gsp ag: qHTS for Agonist of gsp, the Etiologic Mutation Responsible for Fibrous Dysplasia/McCune-Albright Syndrome: qHTS; gsp mutant cells, cAMP HTRF, 30 min; control for the full effect not named in the record; Potency, µM (top dose mostly 76.9 µM), for inactives: at the highest dose activation (cAMP increase), actives largely listed as activators; AID 624287, 2012; 0.13% of 340,000 active; active = well fitted activation curve with a large enough effect; inconclusive = small, poorly fitted or top-dose-only effect, or another doubt; inactive = no such curve, though single readings can be large or run the other way; cell line not stated here;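 note: phosphodiesterase inhibitor Ro 20-1724 added with compounds to block cAMP breakdown; potency is the fitted concentration of half-maximal effect; nearly all actives have a fitted effect of over 60% in size; about a fifth of the inactives were tested at one dose only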
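Cells stably selected in G418 were plated at 2000/well, grown 16-24 hr, then given compounds in DMSO with the PDE inhibitor […] (300 uM solution added) for 30 min at 37C; cAMP was read by HTRF.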
TRPML1 inh: qHTS for Inhibitors of the Human Mucolipin Transient Receptor Potential 1 (TRPML1). TRPML1-inducible cells, Ca2+ dye fluorescence, FDSS; hits give low values; inhibition of EC80 agonist-evoked calcium signal. AID 624415, 2012. 0.02% of 390,000 active. activity change, negative = inhibition, % (test concentration not listed); in the data active means activity change below about -50%; inconclusive means about -30% to -50%; inactive means above about -30%;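 note: stimulus is agonist 54-4 at its EC80 concentration; % is set by controls: 0 for no effect and ±100 for the full control effect; compound concentration not given in the record; the text of the record puts the active cut at -80%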
Target sequence (Q9GZU1 whole entry, looked up): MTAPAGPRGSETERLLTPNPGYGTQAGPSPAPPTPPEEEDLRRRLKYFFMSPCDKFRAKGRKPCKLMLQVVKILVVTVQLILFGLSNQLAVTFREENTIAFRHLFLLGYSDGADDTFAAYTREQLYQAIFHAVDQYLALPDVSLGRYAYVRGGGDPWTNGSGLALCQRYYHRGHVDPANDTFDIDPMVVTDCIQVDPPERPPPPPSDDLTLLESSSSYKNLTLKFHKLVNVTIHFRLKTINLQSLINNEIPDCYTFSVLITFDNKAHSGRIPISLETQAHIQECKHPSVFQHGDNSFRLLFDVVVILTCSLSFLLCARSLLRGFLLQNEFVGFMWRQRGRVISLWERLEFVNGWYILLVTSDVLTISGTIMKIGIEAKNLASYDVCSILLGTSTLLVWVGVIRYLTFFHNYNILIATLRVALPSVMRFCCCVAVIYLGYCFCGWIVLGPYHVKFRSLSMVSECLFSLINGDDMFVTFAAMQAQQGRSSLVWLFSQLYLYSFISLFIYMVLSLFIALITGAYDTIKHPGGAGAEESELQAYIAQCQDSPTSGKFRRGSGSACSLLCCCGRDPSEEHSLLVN
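Calcium fluorescence in TRPML1-DL cells induced overnight with Tet: a 110 s read after compound pin addition, then a 110 s antagonist read after challenge with 54-4 at 4 uM final (EC80).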
TRPML1 ag: qHTS for Agonists of the Human Mucolipin Transient Receptor Potential 1 (TRPML1); 0.12% of 410,000 active; TRPML1-expressing cells, Ca2+ dye fluorescence, FDSS; host cell line not named in the record; reference of the full effect not given here; Mucolipin-1 (Homo sapiens), Q9GZU1; AID 624414, 2012; activation, % (no concentration beside the values); in the data active = activation above about 50%; inconclusive = about 30% to 50%; inactive = below about 30%; note: 0% is about no effect; the text of the record puts the active cut at 80%
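Tet-induced TRPML1-DL cells, 1,500 per well, cultured overnight, were loaded with a no-wash Ca2+ dye for 45–90 min. Calcium fluorescence was recorded on the FDSS for 110 s after compound addition, before the EC80 agonist (4 uM 54-4) was added.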
ClpP mod: qHTS Assay for Activators of ClpP. Potency, µM (doses to about 57.5 µM), for the others: top-dose activity change, negative = active. 1.9% of 340,000 active. ATP-dependent Clp protease proteolytic subunit (Bacillus subtilis (strain 168)), P80244. purified B. subtilis ClpP, FRET peptide cleavage, 20 min; active = well fitted falling curve with a large enough effect; inconclusive = small, poorly fitted or top-dose-only effect; inactive = no such curve, though single readings can be large or run the other way; note: potency is the fitted concentration of half-maximal effect; the source files actives as falling curves though it sought activators and does not explain the sign; nearly all actives have a fitted effect of over 65% in size; many hits overshoot -100%
Target sequence (P80244 whole entry, looked up): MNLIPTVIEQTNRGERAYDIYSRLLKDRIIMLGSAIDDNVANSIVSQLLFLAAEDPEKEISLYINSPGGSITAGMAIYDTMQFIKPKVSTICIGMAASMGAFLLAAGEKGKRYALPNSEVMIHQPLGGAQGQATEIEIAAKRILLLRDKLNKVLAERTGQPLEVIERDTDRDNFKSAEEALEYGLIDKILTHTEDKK
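ClpP 10 microg/mL final, pH 8 Tris/KCl buffer with BSA, glycerol, Tween-20; compound pinned in; FRET-FV substrate; RT 20 min; Ex320/Em430; ΔFRET vs ADEP 5.8 microM, DMSO, no enzyme.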
Active calls of the source: *; ? = inconclusive; . = not tested or not shown; [ ] = another dose, or the depositor's remark.

Molecule	Menin-MLL FL inh	gsp antagonist	gsp ag	TRPML1 inh	TRPML1 ag	ClpP mod
Cc1ccnc(NCc2ccccc2O)c1	3.0	0%	7%	-10	0.0	.
CN(C)c1ccc(/C=C(\C#N)C(=O)Nc2nc3c(s2)CCN(Cc2ccccc2)C3)cc1	?	-5%	18%	-3	?	0.1%
CCOP(=O)(c1ccccc1)C1(C#N)CC1 (stereo unspecified)	-6.4	-1%	10%	-1	0.6	1.4%
N/C(=N\OC(=O)c1ccc(Br)cc1)c1ccccc1	2.7	18%	?	-14	-0.2	-0.6%
COc1ccc(C(=O)N2CCSCC2)cc1OC1CCN(C(C)=O)CC1	.	5%	-69%[inhibitor]	-7	-0.2	-1.6%
Cc1ccc2c(ccn3cc4c(c(=O)n(C)c(=O)n4C)c23)c1	-0.5	3%	12%[15.4 µM]	-20	0.8	.
Cc1cc(=O)[nH]c(SCc2nc3ccc([N+](=O)[O-])cc3[nH]2)n1	4.6	1%	2%[15.4 µM]	15	-0.4	.
O=C(O)/C=C/C(=O)NC1CCCCC1	-2.3	3%	2%[15.4 µM]	-11	0.5	-2.4%
Cc1ccc(NC(=O)CSc2nnc3ccccn23)cc1	-0.5	48%[activator]	4%	-5	0.4	-12%
NC(=O)C1CCN(C(=O)c2ccc(C(F)(F)F)cc2)CC1	-4.0	-2%	-28%	-6	0.1	0.1%
CCOc1ccccc1NC(=O)C1CCCN(S(=O)(=O)c2ccc(OC)c(C)c2)C1 (stereo unspecified)	1.2	-4%[15.4 µM]	-21%	-17	2.0	0.7%
Cc1ccccc1NC(=O)NC1(C(=O)N2CCN(C)CC2)CCCCC1	1.3	4%	-1%	2	-0.3	.
Oc1ccc(Cl)cc1-c1cc(-c2ccco2)[nH]n1	14	-11%	-25%	1	0.1	?
Cc1ccc(C(CNC(=O)c2ccco2)N2CCN(C)CC2)cc1 (stereo unspecified)	.	15%	-11%[15.4 µM]	-19	0.6	-1.7%
CC(=O)C(Sc1nn(C)c(=S)s1)C(=O)Nc1ccccc1 (stereo unspecified)	4.4	-5%	10%	5	-0.3	-1.1%
CCOc1ccc(CNC(=O)c2ccco2)cc1	-1.5	1%	?	-15	-0.2	-1.2%
Cc1ccsc1CCN1C(=O)N(c2ccc(F)cc2)C(=O)C1CC(=O)Nc1ccccc1 (stereo unspecified)	.	.	.	3	0.1	0.0%
Cc1ccc(N2CCN(/N=C/c3ccncc3)CC2)cc1	-1.0	-8%	-79%[inhibitor]	8	1.8	-1.5%
O=C(c1ccc2c(c1)OCO2)N1CCCN(C(=O)c2ccc3c(c2)OCO3)CC1	3.1	3%	-12%	-10	-0.2	-20%
COc1ccccc1NC(=O)CSc1nnc(-c2ccncc2)n1CC1CCCO1 (stereo unspecified)	-0.3	1%	-3%	11	-0.4	-2.0%

Just TRPML1 ag and gsp antagonist (3 entries from above):
compound,TRPML1 ag,gsp antagonist
Cc1ccc(N2CCN(/N=C/c3ccncc3)CC2)cc1,1.8,-8%
NC(=O)C1CCN(C(=O)c2ccc(C(F)(F)F)cc2)CC1,0.1,-2%
Cc1ccc(C(CNC(=O)c2ccco2)N2CCN(C)CC2)cc1 (stereo unspecified),0.6,15%

The results go on:
Molecule	Menin-MLL FL inh	gsp antagonist	gsp ag	TRPML1 inh	TRPML1 ag	ClpP mod
CCOC(=O)C1(CC2CCCCO2)CCN(Cc2cc3ccccc3[nH]2)CC1 (stereo unspecified)	-0.6	1%	-4%[15.4 µM]	2	95*	.
COc1ccccc1N1CCN(CC(O)COc2ccc(Cl)c(C)c2)CC1 (stereo unspecified)	.	.	.	-10	-0.7	-2.1%
Brc1cccc(/C=N\n2cnnc2)c1	-3.4	10%	9%	1	0.0	-0.5%
NC(=O)Cn1cnc2nc3n(c2c1=O)CCC3	4.0	23%	12%[15.4 µM]	-2	-0.9	.
O=S(=O)(c1ccc2c(c1)CCCC2)N1CCNCC1	.	6%	4%	-3	3.2	-1.9%
CCC(C)N1CCN(C(=O)c2cc(OC)cc(OC)c2)CC1 (stereo unspecified)	-4.4	10%	18%	6	0.1	0.3%
COC(=O)C(C(C)C)N(Cc1cc(OC)cc(OC)c1)S(=O)(=O)CCl (stereo unspecified)	.	-4%	.	8	-1.0	0.3%
Cc1ccc(C)c(N(C(=O)c2ccco2)C(C(=O)NC2CCCC2)c2ccco2)c1 (stereo unspecified)	0.0	-9%	2%[15.4 µM]	-8	-0.1	.
Cc1ccc(S(=O)(=O)N2CCC(C(=O)NC3CC(C)(C)NC(C)(C)C3)CC2)cc1C	-2.1	5%	-5%	8	-0.3	1.8%
O=C1c2ccccc2C(=O)c2c(Nc3ccc(CCO)cc3)ccc(O)c21	-26	?	?	5	-0.1	0.9%
O=C(NNc1ccc(C2CCCCC2)cc1)C(O)(c1ccccc1)c1cccs1 (stereo unspecified)	2.4	-4%	30%	0	3.0	-1.4%
S=C(Nc1ccccc1Oc1ccccc1)NC1CCCC1	-0.1	0%	-25%	3	2.3	-1.8%
Cc1ccc(-n2nnnc2CNC(=O)C(C)C)cc1C	.	.	.	-8	-0.2	0.0%
CCOCc1cc(CN2CCC(n3nccc3NC(=O)C3CC3)CC2)ccc1OC	-4.2	6%	0%	9	0.4	?
Cc1ccc(C)c(CSc2nnc3[nH]c(=O)cc(-c4ccccc4)n23)c1	.	.	.	-6	1.9	-20%
CC(C)CC(=O)N/N=C/c1c(N)n(C)c(=O)n(C)c1=O	3.6	7%	4%[15.4 µM]	10	-0.4	-1.1%
O=C(CCCCCN1C(=O)c2ccccc2C1=O)Nc1ccccc1	-0.8	3%	-21%	-5	-0.6	1.1%
Cc1cccc(OCCSc2nc3ccc(NC(=O)COc4ccccc4)cc3s2)c1	.	.	.	-9	0.1	2.5%
COc1cccc(N(CC(=O)NCc2ccccc2)C(=O)CCC(=O)Nc2nccs2)c1	3.7	3%	-1%	31	-0.7	.
Cn1cc(Cl)c(-c2n[nH]c(=S)n2-c2ccccc2)n1	1.6	31%	?	6	0.0	-1.3%
CN(C)CC(=O)Nc1ccc(S(N)(=O)=O)cc1	1.7	4%	-36%[inhibitor]	-1	1.4	-3.1%
O=C(Cc1ccc(Cl)cc1)Nc1nc2ccccc2[nH]1	4.6	4%	?	-3	-1.1	-8.3%
COc1cccc(C(=O)CSc2nnc(-c3cccs3)o2)c1	4.1	2%	-29%	-3	1.7	-0.8%
O=C(CNC(=O)c1ccco1)Nc1cccc(Cl)c1	2.3	16%	-4%	16	-0.1	-1.0%
Cc1ccc2nc(N3CCC(C(=O)N4CCN(c5cccc(C)c5C)CC4)CC3)[nH]c2c1	.	.	.	18	2.4	-0.3%
Cc1nnc(NC(=O)CSc2nc3ccccc3o2)s1	-1.1	-2%	-1%	9	0.2	-1.2%
CCCCn1c(=O)c(F)cn(Cc2ccc(OC)c([N+](=O)[O-])c2)c1=O	1.6	13%	-14%	-9	0.0	0.4%
CCn1c(CCC(N)=O)nnc1SCC(=O)c1cc(C)n(C2CC2)c1C	.	-16%	17%	4	-0.5	1.8%
Cc1nnsc1Sc1ccccc1C(=O)O	0.3	-5%	1%	25	0.0	.
O=C1NC(=O)/C(=C\c2ccc(O)cc2O)S1	2.2	-8%	20%	4	2.8	-3.5%
FC(F)(F)c1ccccc1Cc1c(-c2ccc(Cl)cc2)nc2ccc(Cl)cn12	.	.	.	-4	1.2	?
COc1ccc(Oc2nc(-c3cccnc3)nc3ccccc23)cc1	1.6	-23%	-17%[15.4 µM]	24	1.0	.
CC1CCCCC1NC(=O)Cn1[nH]c(=O)c2ccccc2c1=O (stereo unspecified)	3.9	4%	0%	26	0.0	-20%
O=Cc1cnc(N2CCCCC2)s1	-1.1	5%	-1%	0	0.4	-3.8%
CCOC(=O)C1CCN(C(c2ccc(C)cc2)c2sc3nc(-c4ccco4)nn3c2O)CC1 (stereo unspecified)	.	.	.	-29	2.9	1.5%
COc1cc(-c2nnc(SCc3c(F)cccc3Cl)o2)cc(OC)c1OC	-1.5	17%	1%	9	0.7	-0.9%
Cc1ccc(N(CC(=O)NC2CCCC2)C(=O)CCCC(=O)Nc2ccccn2)cc1C	2.8	0%	6%	1	-0.6	-0.2%
Cc1cccc(C)c1NC(=O)c1cn(-c2ccccc2)nc1-c1ccccc1	2.6	-9%	-5%	-6	2.2	0.4%
COC(=O)c1c(NC(=O)c2ccc(Br)s2)sc2c1CCC2	5.3	?	30%	-5	2.7	-0.5%
COC(=O)C1CC2=C(CCCC2=O)N(Cc2ccccc2)C1=O (stereo unspecified)	.	-1%	.	-10	-0.9	-7.7%
CCCn1c(=N)n(CC(=O)c2cccs2)c2ccccc21	1.1	-1%	-17%	2	0.7	-1.0%
CCCn1c(/C=N/Nc2nc3ccccc3[nH]2)nc2ccccc21	7.4	?	-7%	28	2.0	-1.4%
O=C1CC(N2CCN(CCc3ccccn3)CC2)C(=O)N1c1ccc(Cl)cc1 (stereo unspecified)	0.4	-1%	-3%	10	-0.7	-0.7%
COC(=O)c1c(O)ccc(Oc2ccccc2)c1C(=O)OC	4.1	13%	4%	-6	-1.2	4.9%
Cc1cccc(NC(=O)CSc2nc3c(c(=O)[nH]2)CN(Cc2ccc4c(c2)OCO4)CC3)c1C	.	.	.	19	-1.3	-0.5%
COc1ccc(S(=O)(=O)Nc2nc3ccccc3s2)cc1OC	-5.6	-13%	-10%	17	2.5	-0.1%
COc1cccc(NC(=O)CN(C)C(=O)c2cn(-c3ccccc3)nc2-c2cccnc2)c1	.	4%	-51%[inhibitor]	-11	1.6	0.9%
CC(Oc1ccccc1Cl)C(=O)Nc1ccc(S(=O)(=O)N2CCN(C)CC2)cc1 (stereo unspecified)	.	7%	9%[15.4 µM]	-19	-0.1	.
Cc1cc(C)cc(NC(=O)c2nnn(Cc3cccc(Br)c3)c2N)c1	.	.	.	-7	0.6	4.7%
CC1=C(C(=O)OCc2ccccc2)C(c2ccco2)n2ncnc2N1 (stereo unspecified)	1.2	1%	18%	6	0.8	3.6%
